Screens: PubChem, National Center for Advancing Translational Sciences (NCATS)
Six1-Eya2 inh: qHTS Assay for Inhibitors of the Six1/Eya2 Interaction. Homeobox protein SIX1 (Homo sapiens) + Protein phosphatase EYA2 (Homo sapiens), …. activity change, % (test concentration not listed). actives 0.56% (n = 360,000). AlphaScreen GST-Six1/His-Eya2 binding, biochemical; hits give low values; control for the full effect not named in the record; in the data active = activity change below about -65%; inconclusive = about -30% to -65%; inactive = above about -30%; further: on the % scale 0 is the no-effect control and ±100 the full control effect; compound concentration not given in the record
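GST-Six1 + His-Eya2 (5X stock: 250/500 nM); Tris pH 8.0, 300 mM NaCl, 0.05% BSA, 0.02% Tween 20; GSH donor/Ni acceptor beads; 1 h 37 °C dark; AlphaScreen readout.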
TRPML1 blocker: qHTS for Inhibitors of the Human Mucolipin Transient Receptor Potential 1 (TRPML1); Mucolipin-1 (Homo sapiens), Q9GZU1; TRPML1-inducible cells, Ca2+ dye fluorescence, FDSS; hits give low values; inhibition of EC80 agonist-evoked calcium signal; actives 0.02% (n = 390,000); activity change, negative = inhibition, % (concentration not given with the values); in the data active means activity change below about -50%; inconclusive means about -30% to -50%; inactive means above about -30%;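 further: stimulus is agonist 54-4 at its EC80 concentration; on the % scale 0 is the no-effect control and ±100 the full control effect; compound concentration not given in the record; the text of the record puts the active cut at -80%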
Target sequence (Q9GZU1 whole entry, looked up): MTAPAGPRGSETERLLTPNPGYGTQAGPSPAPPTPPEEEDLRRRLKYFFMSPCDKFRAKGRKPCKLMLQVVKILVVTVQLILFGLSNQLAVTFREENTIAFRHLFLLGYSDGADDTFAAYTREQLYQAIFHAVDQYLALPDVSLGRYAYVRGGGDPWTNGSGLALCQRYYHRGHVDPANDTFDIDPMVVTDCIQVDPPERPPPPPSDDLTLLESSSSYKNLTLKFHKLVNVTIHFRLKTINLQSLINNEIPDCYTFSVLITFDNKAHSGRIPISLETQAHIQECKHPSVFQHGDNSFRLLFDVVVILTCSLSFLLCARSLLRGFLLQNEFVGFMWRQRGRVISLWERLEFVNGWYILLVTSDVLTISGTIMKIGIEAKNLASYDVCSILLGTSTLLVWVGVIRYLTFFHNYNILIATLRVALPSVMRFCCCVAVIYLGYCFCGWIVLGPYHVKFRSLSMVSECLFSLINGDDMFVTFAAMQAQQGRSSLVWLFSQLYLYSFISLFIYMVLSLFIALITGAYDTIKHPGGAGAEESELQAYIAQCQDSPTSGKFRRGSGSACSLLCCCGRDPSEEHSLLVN
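Calcium fluorescence in TRPML1-DL cells induced overnight with Tet: a 110 s read after compound pin addition, then a 110 s antagonist read after challenge with 54-4 at 4 uM final (EC80).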
PINK1 modulator: A Quantitative High throughput Screen to Identify Chemical Modulators of PINK1 Expression. PINK1 immunofluorescence, high-content cytometry, 24 h. Potency, µM (series often up to 76.6 µM), without a hit: at the highest dose activation (PINK1 increase), actives largely listed as activators. actives 0.2% (n = 410,000). AID 624263, 2012; active = well fitted activation curve with a large enough effect; inconclusive = small, poorly fitted or top-dose-only effect; inactive = flat fitted curve, though single readings scatter; cell line not stated here;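 further: potency means the concentration at half of the fitted maximal effect; % of control where 0% means no effect; nearly all actives have a fitted effect of over 65% in size; a mitochondrial uncoupler was the plate control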
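A stable cell line was treated with compounds at 5 concentrations for 24 hours, with CCCP as control. PINK1 levels and mitochondrial localization were measured by immunofluorescence with mitochondrial, cell and nuclear markers after fixation, read by laser-scanning cytometry.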
D2 potentiator: Beta-Arrestin HTS for Positive Allosteric Modulators of the Human D2 Dopamine Receptor: Potentiators. DiscoveRx D2 beta-arrestin cells, luminescence, 90 min; 100% = 57 uM dopamine signal. actives 0.23% (n = 360,000). AID 624464, 2012. potentiation, % (no concentration beside the values); active = potentiation of 50% or more; inconclusive = 30% to 50%; inactive = 30% or less;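 further: compound concentration not given in the record; tested on top of an EC20 dose of dopamine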
Target sequence (P14416 whole entry, looked up): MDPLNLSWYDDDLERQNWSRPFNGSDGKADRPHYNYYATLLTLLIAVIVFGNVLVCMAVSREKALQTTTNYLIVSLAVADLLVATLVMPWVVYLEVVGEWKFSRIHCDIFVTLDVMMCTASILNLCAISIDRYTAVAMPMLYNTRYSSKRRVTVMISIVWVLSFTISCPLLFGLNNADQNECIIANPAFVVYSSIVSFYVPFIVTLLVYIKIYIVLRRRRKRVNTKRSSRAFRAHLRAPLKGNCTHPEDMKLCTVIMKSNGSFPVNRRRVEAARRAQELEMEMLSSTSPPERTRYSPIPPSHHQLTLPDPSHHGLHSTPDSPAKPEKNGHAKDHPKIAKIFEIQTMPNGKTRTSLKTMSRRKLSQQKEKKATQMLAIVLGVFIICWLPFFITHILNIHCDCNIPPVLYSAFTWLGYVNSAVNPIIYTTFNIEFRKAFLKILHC
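PathHunter beta-arrestin assay in DiscoveRx D2 cells. Compounds were added with an EC20 of dopamine (50 nM final) for 90 min at 37 deg C. Luminescence was read 1 h after detection reagent, with 57 uM dopamine as the EC100 control.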
D2 ag: Beta-Arrestin HTS for Positive Allosteric Modulators of the Human D2 Dopamine Receptor: Agonists. activation, % (no concentration beside the values). D(2) dopamine receptor (Homo sapiens), P14416. DiscoveRx PathHunter D2 beta-arrestin, luminescence, 90 min; 100% = 57 uM dopamine signal. AID 624465, 2012. actives 0.084% (n = 360,000); in the data active = activation above about 40%; inconclusive = about 15% to 40%; inactive = below about 15%; further: compound concentration not given in the record; the text of the record calls up to 30% inactive
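DiscoveRx PathHunter D2 beta-arrestin cells (2,100/well) attached overnight, then compound-stimulated 90 min at 37 C in HBSS/10 mM HEPES/0.1% Tween-20 buffer; beta-galactosidase complementation read by luminescence after 1 h at ambient temperature. Dopamine 57 uM final (EC100) as control.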
TRPML1 agonist: qHTS for Agonists of the Human Mucolipin Transient Receptor Potential 1 (TRPML1); TRPML1-expressing cells, Ca2+ dye fluorescence, FDSS; host cell line not named in the record; reference of the full effect not given here; activation, % (test concentration not listed); actives 0.12% (n = 410,000); in the data active = activation above about 50%; inconclusive = about 30% to 50%; inactive = below about 30%; further: 0% is about no effect; the text of the record puts the active cut at 80%
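Agonist activity was taken from a 110 s kinetic Ca2+ dye read on the FDSS after pinning compounds onto TRPML1-DL cells. The cells were seeded at 1,500/well with Tet inducer, incubated about 16 h, then dye-loaded at room temperature.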
* hit, by the source's call; ? = inconclusive; · = not tested or not shown; & = joins results of further samples; [ ] = dose if it differs, or a comment. Outcome played no part in choosing rows; any-hit rate near 1%.

entry	compound	Six1-Eya2 inh	D2 ag	D2 potentiator
1	Cc1cccc(NC(=O)c2ccc(OCC(=O)NCc3ccccc3)cc2)c1C	0	-2.7	-7
2	CN1C(=O)/C(=C/c2ccccc2OCc2ccc(C(=O)O)cc2)NC1=S	-2	-3.3	-8
3	Cc1ccc2nc(Cn3cc(C(F)(F)F)ccc3=O)cc(=O)n2c1	10	-2.4	0
4	COC(=O)c1ccc(NC(=O)c2ccc(OC(C)=O)c(OC)c2)cc1	-7	-2.8	-8
5	O=c1c2cc(Cl)ccc2nc(-c2ccc(Cl)c(Cl)c2)n1O	3	0.2	-3
6	COC(=O)Nc1ccc(S(=O)(=O)N2CCC(C(=O)NC3CCCCC3)CC2)cc1	23	-3.6	-5
7	CCOC(=O)/C(C#N)=C\c1cc(OC)c(OC)cc1[N+](=O)[O-]	-11	-1.7	-6
8	CC1CCN(C(=O)c2[nH]cnc2C(=O)NCC(=O)OC(C)(C)C)CC1	4	2.6	-4
9	CCOC(=O)C1CCN(C(=O)c2cc(C)n(C(C)(C)C)n2)CC1	9	-0.1	1
10	CCOc1ccc(NC(=O)CCCn2c(C)c3cnn(-c4ccccc4)c(=O)c3c2C)cc1	·	·	·
11	Nc1ccccc1Sc1ccc(C(F)(F)F)cc1[N+](=O)[O-]	-26	0.0	-6
12	CCO/C([O-])=N/c1c[n+](N2CCOCC2)no1	-1&-5	3.8&-6.5	-1&-26

entry	TRPML1 agonist	PINK1 modulator	TRPML1 blocker
1	1.1	0.9%[38.3 µM]	-8
2	0.8	-0.7%	1
3	0.5	0.3%	-10
4	0.7	5.5%	-11
5	6.0	7.1%	20
6	0.6	2.6%	10
7	-0.1	-0.5%	48
8	-0.8	-0.9%	4
9	0.9	0.5%	12
10	-1.2	-0.1%	-3
11	1.0	2.4%	14
12	-0.4&0.0	0.7%&1.4%	13&-18

Profiles as entered above. Values in the order: Six1-Eya2 inh, D2 ag, D2 potentiator, TRPML1 agonist, PINK1 modulator, TRPML1 blocker
Entry for `CN1C(=O)/C(=C/c2ccccc2OCc2ccc(C(=O)O)cc2)NC1=S` → -2, -3.3, -8, 0.8, -0.7%, 1
Entry for `CCO/C([O-])=N/c1c[n+](N2CCOCC2)no1` → -1&-5, 3.8&-6.5, -1&-26, -0.4&0.0, 0.7%&1.4%, 13&-18
Entry for `O=c1c2cc(Cl)ccc2nc(-c2ccc(Cl)c(Cl)c2)n1O` → 3, 0.2, -3, 6.0, 7.1%, 20
Entry for `CCOC(=O)/C(C#N)=C\c1cc(OC)c(OC)cc1[N+](=O)[O-]` → -11, -1.7, -6, -0.1, -0.5%, 48

Later entries
entry	compound	Six1-Eya2 inh	D2 ag	D2 potentiator
13	COc1ccc(Nc2nc3c(C)cccn3c(=O)c2C=NCc2ccccc2)cc1	-12	-5.2	-1
14	COc1ccc(OC)c(NC(=O)c2cc3c(s2)-c2ccccc2SC3)c1	·	·	·
15	CCc1ccc(N2CCn3c2nc2c3c(=O)n(Cc3cccc(C)c3)c(=O)n2C)cc1	·	·	·
16	N#CC1=C(N)C2=CCCC[C@H]2[C@H](c2cccc(F)c2)C1(C#N)C#N	-4	-4.4	-32
17	Cc1nccn1CCCNC(=O)CC1C(=O)NCCN1Cc1ccc(Cl)c(F)c1 (configuration not stated)	4	-6.5	-8
18	O=[N+]([O-])c1cccc(/C=N/Nc2nnc(-c3ccccc3)c(-c3ccccc3)n2)c1	-1	-3.2	-8
19	COc1cc(/C=C2\SC(=S)N(NS(=O)(=O)c3ccccc3)C2=O)ccc1O	-16	-7.9	-22
20	O=C(/C=C/c1c(Cl)cccc1Cl)NCc1ccccc1	8	1.3	-13
21	CCN(CC)CCNC(=O)c1cc([N+](=O)[O-])c(N(C)C)cc1OC	2	-1.8	-14
22	CCc1ccc2nc(N(Cc3cccnc3)C(C)=O)sc2c1	·	·	·
23	CN(c1ccccc1)S(=O)(=O)c1cccc(NC(=O)CSc2nncs2)c1	-4	4.6	23
24	Cc1nc(CCNC(=O)C2CCC(=O)N(CCc3cccc(F)c3)C2)sc1C (configuration not stated)	3	-2.1	17

entry	TRPML1 agonist	PINK1 modulator	TRPML1 blocker
13	1.3	6.2%	8
14	0.9	-0.9%	1
15	-0.4	-0.5%	-2
16	0.3	0.5%	-5
17	0.6	1.1%	-9
18	-0.8	11%	-13
19	8.6	0.6%	-16
20	1.2	11%	-3
21	0.0	2.4%	-8
22	1.6	-0.4%	24
23	1.5	1.6%	-3
24	-0.4	-0.9%	-5

Quoted at random: two entries already listed.
entry	compound	Six1-Eya2 inh	D2 ag	D2 potentiator
24	Cc1nc(CCNC(=O)C2CCC(=O)N(CCc3cccc(F)c3)C2)sc1C (configuration not stated)	3	-2.1	17
22	CCc1ccc2nc(N(Cc3cccnc3)C(C)=O)sc2c1	·	·	·

entry	TRPML1 agonist	PINK1 modulator	TRPML1 blocker
24	-0.4	-0.9%	-5
22	1.6	-0.4%	24

Entries 13 to 14, quoted:
entry	compound	Six1-Eya2 inh	D2 ag	D2 potentiator
13	COc1ccc(Nc2nc3c(C)cccn3c(=O)c2C=NCc2ccccc2)cc1	-12	-5.2	-1
14	COc1ccc(OC)c(NC(=O)c2cc3c(s2)-c2ccccc2SC3)c1	·	·	·

entry	TRPML1 agonist	PINK1 modulator	TRPML1 blocker
13	1.3	6.2%	8
14	0.9	-0.9%	1

Additional entries follow.
entry	compound	Six1-Eya2 inh	D2 ag	D2 potentiator
25	CN(CCC#N)C(=O)COc1ccc(Br)cc1Cl	7	-0.2	-3
26	COc1ccccc1NC(=O)CNC(c1ccccc1)c1ccccc1	-8	-2.6	-6
27	CS(=O)(=O)N(CC(=O)Nc1ccc(Br)cc1F)C1CCCCC1	-8	-0.3	3
28	COCc1ccc(C(=O)N(C)CC2CCCN(CCc3ccccc3F)C2)o1 (configuration not stated)	0	-0.3	-20
29	CCc1nc2ccc(C(=O)Nc3ccc4c(c3)OCC(=O)N4)cn2c1N(CC)CCOC	2	2.4	1
30	COc1ccc(CNC(=S)N2CCN(S(=O)(=O)c3cccc(F)c3)CC2)cc1	-1	-6.2	-11
31	O=C(Nc1cccc([N+](=O)[O-])c1)C1C2CC/C=C\CCC21 (configuration not stated)	-1	-1.7	-17
32	CNc1ccc(-c2nc(-c3ccccn3)no2)cc1[N+](=O)[O-]	·	·	·
33	Cc1ccn2c(Nc3ccc4c(c3)OCO4)c(-c3ccco3)nc2c1	·	·	·
34	CCOC(=O)/C=C/C(=O)Nc1ccc(S(=O)(=O)Nc2c(C)cc(C)cc2C)cc1	1	-3.0	-2
35	COc1ccc(Br)cc1C(=O)Nc1ccc(N2CCCC2)cc1	?	-0.9	-1
36	CCOC(=O)[C@]12CCC=C1N(Cc1ccc3c(c1)OCO3)C(=O)[C@H](CC(=O)N1CCN(C(=O)c3ccco3)CC1)C2	6	·	·

entry	TRPML1 agonist	PINK1 modulator	TRPML1 blocker
25	0.0	-1.9%	-15
26	3.9	5.6%	25
27	-0.5	4.1%	-8
28	-0.5	1.8%	-2
29	-0.8	-0.6%	·
30	-0.2	3.9%	-8
31	0.6	6.8%	3
32	-0.6	-0.4%	-19
33	0.5	-0.4%	2
34	1.0	0.5%	-1
35	1.0	9.3%	12
36	-1.2	0.2%	·

Additional structures.
entry	compound	Six1-Eya2 inh	D2 ag	D2 potentiator
37	CC(C)(C)NCC(O)COc1ccc(Br)cc1 (configuration not stated)	5	-0.5	-1
38	CC(C)CC(=O)NC(=S)Nc1ccc(S(=O)(=O)N2CCN(C)CC2)cc1	8	-0.8	-12
39	Cc1ccc(NC(=O)CSCC(=O)N=c2sccn2C)cc1	-3	-2.6	-28
40	Cc1ccc(S(=O)(=O)NCCCNC(=O)OCc2ccccc2)cc1	6	1.2	-8
41	COc1ccc(N2CCN(c3ncnc4c3cnn4-c3ccc(C)cc3C)CC2)cc1	-3	-1.2	-1
42	O=C(O)CC(O)C(=O)O (configuration not stated)	5	0.2	-11
43	CCCCc1ccc(NC(=O)CC(C)=O)cc1	5	-4.7	-4
44	CCCC(=O)N1CCN(Cc2nc3cc([N+](=O)[O-])ccc3n2C)CC1	9	-2.8	0
45	O=C(CSc1cccc2cccnc12)Nc1cccc(S(=O)(=O)N2CCOCC2)c1	0	0.8	-15
46	Nc1cccc2cc(S(=O)(=O)O)ccc12	?	9.7	9
47	Cc1[nH]n(C)c(=O)c1C(=O)c1c(-c2c(Cl)cccc2Cl)noc1C	-14	-0.2	-15
48	CCN(CC)CCN1C(=O)c2ccccc2NC1c1cccc(F)c1 (configuration not stated)	0	-1.6	-6

entry	TRPML1 agonist	PINK1 modulator	TRPML1 blocker
37	0.2	1.0%	0
38	0.5	-0.9%	0
39	-0.8	-1.2%	-3
40	2.3	-0.8%	-5
41	3.4	16%[38.3 µM]	-13
42	3.6	2.6%	11
43	0.0	5.6%[38.3 µM]	-12
44	-0.6	-1.3%	18
45	-0.3	4.0%	4
46	1.0	-0.9%	0
47	3.2	?	3
48	-0.5	-3.7%	-12

New compounds follow.
entry	compound	Six1-Eya2 inh	D2 ag	D2 potentiator
49	COC(C[C@H]1O[C@H]1[C@@H](O)COCc1ccccc1)OC	7	0.0	-1
50	O=C(c1ccccc1F)N1CCCC(c2ccccc2)C1 (configuration not stated)	-1	0.1	-7
51	CN1OC[C@@H]2CN(S(=O)(=O)c3ccccc3)[C@H](c3ccc(N4CCCCC4)cc3)C[C@@H]21	-1	-4.5	-4
52	O=Cc1s/c(=N\S(=O)(=O)c2ccccc2)n(CCCCl)c1Cl	-12	-7.3	-39
53	NC(=O)CSc1oc(-c2ccco2)nc1S(=O)(=O)c1ccccc1	-1	0.4	-5
54	COC(=O)c1sc(-c2ccccc2)cc1NC(=O)Nc1ccc(F)cc1	·	·	·
55	Cn1c(-c2ccccc2)c(Sc2ccccc2)c2cc(-c3ccc4cc[nH]c4c3)ccc21	-2	·	·
56	CCOCCCNC(=O)/C(C#N)=C/c1ccc(-c2ccc(S(=O)(=O)N3CCOCC3)cc2)o1	1	0.1	-3

entry	TRPML1 agonist	PINK1 modulator	TRPML1 blocker
49	-0.4	2.1%	0
50	2.8	-0.6%	-6
51	0.5	-0.3%	·
52	3.4	-1.4%	-5
53	0.1	1.1%	23
54	-0.2	0.7%	-10
55	-0.3	2.1%	·
56	0.5	8.1%	3
